Screening results from PubChem BioAssay.
Choline anaer gr = growth inhibitors of anaerobic choline-fed gram-negatives, minimal medium, absorbance; calls only; AID 1963822, 2024; Gram-negative bacterium anaerobic choline minimal medium; stronger effect = lower value; many inactives read as strong as hits in the columns shown; 55,000 tested, 0.2% active;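 active = growth z-score on choline under -2 at 7 or 20 h with little or no fall on glycerol, limits in tiers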;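 note: stock transfer was 300 nL into about 50 µL; the organism is E. coli; final concentration not given here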
Choline anaer gr early = recorded beside Choline anaer gr, whose call it bears; z-score; measured here: choline growth z-score, timepoint 1;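 score of optical density at 7 h as mean of two plates; lower means less growth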
Numbers without * were called inactive; i = inactive; & = joins results of further samples. These rows are one share of the data. The share of hits here may be higher or lower than overall.

nr	smiles	Choline anaer gr	Choline anaer gr early
1	CC(C)(C)c1cc2n(n1)CC(C)(C(=O)NC1CCCCC1)N(c1cccc(F)c1)C2=O (stereo not given)	i	0.94
2	CC(=O)N1c2nc(-c3ccc(F)cc3)nn2C2(CCCCC2)[C@@H]2CCCC[C@@H]21	i	0.78
3	Cc1ccc2oc(SCc3noc(CCC(=O)Nc4cc(C)on4)n3)nc2c1	i	2.7
4	CC(C)Cc1cc(-c2nnc3sc(COc4ccccc4Cl)nn23)n[nH]1	i	-0.55
5	CCCS(=O)(=O)Nc1ccc2c(c1)CCCN2C(=O)c1ccccc1	i	-0.23
6	Cc1ccc(OCc2nnc3sc(C4COc5ccccc5O4)nn23)cc1 (stereo not given)	i	0.31
7	Cn1cc(C(=O)O)c(S(=O)(=O)N2CCOCC2)n1	i	0.55
8	COc1ccc(CCNc2nc(-c3nnc(-c4ccc(C)cc4)o3)nc3ccccc23)c(OC)c1	i	-0.71
9	CCOc1ccc(CC(=O)N2CCc3cc(-c4noc(C)n4)ccc32)cc1OCC	i	0.15
10	CCOC(=O)c1nc(Nc2ccc(F)cc2Cl)c2ccccc2n1	i	0.12
11	CCCCN1CCN(Cc2nc3nc(C)cc(N4CCCC4)n3n2)CC1	i	-0.02
12	COc1ccc(C(=O)N2CCNC(=O)C2CC(=O)Nc2ccc(F)cc2)cc1 (stereo not given)	i	-0.52
13	CCCc1cc(C2CCCN2Cc2ccc(OC)c(O)c2)no1 (stereo not given)	i	0.5
14	Cc1cccc(CNC(=O)Cc2c(C)n[nH]c2C)c1	i	-1.1
15	COc1ccc(C(=O)c2c(N)c(C(=O)Nc3cccc(OC)c3)c3ccccn23)cc1	i	-0.1
16	CCOC(=O)c1nn(-c2ccc(F)cc2)c(=O)c2c(NC(=O)C3c4ccccc4Oc4ccccc43)scc12	i	-0.24
17	OC[C@H]1NC[C@@H](O)[C@@H]1O	i	1.1
18	CCOC(=O)c1scc(-c2ccc(C)cc2)c1S(=O)(=O)N1CCN(c2ccccn2)CC1	i	-1.4
19	O=C(c1ccc(OCC2CCCN(C(=O)C3CCCCC3)C2)cc1)N1CCCCC1 (stereo not given)	i	0.52
20	O=C(Nc1ccccc1)Nc1nc2c(s1)CN(S(=O)(=O)c1ccccc1)CC2	i	0.32
21	O=C(Nc1cnc(N2CCN(c3ccc(F)cc3)CC2)c(C(=O)O)c1)c1ccc(F)cc1	i	0.69
22	Cc1nc(-c2cccc(N3CC(C(=O)Nc4ccc5c(c4)OCCO5)CC3=O)c2)no1 (stereo not given)	i	0.08
23	COc1cc(OC)cc(C(=O)N2CCN(c3nc4ccccc4n(C)c3=O)CC2)c1	i	-0.09
24	Cc1cccc(-c2nccc(N3CCC(C(=O)N(C)Cc4ccccc4)CC3)n2)c1	i	1.9
25	Cc1sc(-c2cc(C(F)(F)F)on2)cc1S(=O)(=O)N1CCc2ccccc21	i	-0.03

The list continues:
nr	smiles	Choline anaer gr	Choline anaer gr early
26	Cc1ccc(-c2nccc(N3CCC(C(=O)NC(C)c4ccc(C)cc4)CC3)n2)cc1 (stereo not given)	i	0.15
27	CCc1nnc(-c2cc(NS(C)(=O)=O)c(C)s2)o1	i	0.28
28	COCc1c(C(C)C)nc(C(C)C)c(/C=C/[C@@H](O)C[C@@H](O)CC(=O)O)c1-c1ccc(F)cc1	i	-0.42
29	Cc1ccc2oc(-c3nnc(C(=O)NCCCOC(C)C)o3)c(C)c2c1	i	0.95
30	Cc1ccc2nc3c(C(=O)O)cccn3c(=O)c2c1	i	-1.5
31	CCCc1cc(C2CCCN2C(=O)c2c(-c3ccccc3Cl)noc2C)no1 (stereo not given)	i	0.27
32	Cc1ccc(NC(=O)Cn2cc(S(=O)(=O)c3ccc(C(C)C)cc3)c(=O)c3ccccc32)cc1	i	-0.87
33	COCCNC(=O)N1CCN(Cc2nc3cc(Cl)ccc3o2)CC1	i	0.26
34	Fc1ccc(CNC2=NCCNC23CCCCCC3)cc1	i	0.77
35	CCCSc1nc2c(cnn2CCO)c(=O)[nH]1	i	-1.3
36	Cn1c(=O)n(-c2ccc(F)cc2)c2nc(-c3ccc(F)cc3)nc(C(N)=O)c21	i	-0.17
37	Cc1ccc(-c2nc3ccccc3c3nnc(SCC(=O)NC(C)C)n23)cc1	i	0.29
38	O=C(Nc1nnc(-c2cc3ccccc3o2)o1)c1ccccc1	i	-1.9
39	CCOc1ccc2nc(NC(=O)CN3C(=O)C(C)(C)c4ccccc43)sc2c1	i	1.1
40	Cc1c(CCNC(=O)c2ccccc2)sc2nc(-c3ccc(F)cc3)nn12	i	0.58
41	Cc1cccc(C(=O)Nc2ccc3c(c2)CCC(=O)N3)c1	i	0.16
42	COc1ccc(N2C(=N)/C(=C3/Nc4ccccc4S3)CC2=O)cc1OC	i	-0.21
43	CCOC(=O)c1[nH]c(C)c(CN(Cc2ccc(OC)cc2)S(=O)(=O)c2cc(C)ccc2C)c1C	i	0.22
44	Cc1ccc(N2CCC(C(=O)NCc3cccc(F)c3)C2=O)cc1 (stereo not given)	i	0.32
45	COC(=O)c1ccccc1NC(=O)CSc1n[nH]c(-c2ccc(F)cc2)n1	i	1.7
46	CSCC[C@H](NC(=O)N1CC(C)CC(C)C1)C(=O)O (stereo not given in full)	i	0.33
47	O=C1COc2cc(S(=O)(=O)N3CCCC3C(=O)NCCN3CCCC3)c(Cl)cc2N1 (stereo not given)	i	-0.3
48	Cc1nc(C)c(-c2nc(-c3ccc4c(c3)[nH]c(=O)c(=O)n4C(C)C)no2)s1	i	-0.78
49	C1CCC(N=C(NC23CC4CC(CC(C4)C2)C3)N2CCOCC2)CC1	i	0.33
50	CCCCCCCNCc1ccc2c(c1)n(C)c(=O)n2C	i	-0.35

Later entries.
nr	smiles	Choline anaer gr	Choline anaer gr early
51	O=C(C1=Cc2cc(Br)ccc2OC=C1)N1CCOCC1	i	-1.2
52	CCc1cc(C2CCCN2C(=O)NC(C)C)on1 (stereo not given)	i	0.09
53	O=c1c(-c2ccc(O)cc2)coc2cc(O)cc(O)c12	i	0.74&-2.6&0.44
54	O=c1cc(-c2ccccc2)oc2cc(OCc3ccccc3)cc(O)c12	i	0.82
55	CC(=O)N1CCCc2cc(S(=O)(=O)N3CCC(C(=O)N4CCN(c5cc(C)ccc5C)CC4)CC3)ccc21	i	0.6
56	CC(O)(P(=O)(O)O)P(=O)(O)O	i	0.33
57	COC(=O)c1sc2nc3c(cc2c1N)CN(Cc1ccccc1)CC3	i	0.92
58	CCCn1c(=O)c2ccc(C(=O)NC(C)C)cc2n2c(=O)n(CC(=O)NC3CCCCC3)nc12	i	0.13
59	O=C(CN1C(=O)CN(C(=O)Nc2ccccc2)c2ccccc21)NCc1ccc(Cl)cc1	i	1.2
60	Cc1cc(C)c2c(n1)SCCN2C(=O)Nc1ccc(C)c(F)c1	i	0.39
61	COc1ccc2c(c1)CC(NS(=O)(=O)c1cccc(Cl)c1)CO2 (stereo not given)	i	-1.3
62	N#Cc1nc(-c2ccc(S(=O)(=O)N3CCCCC3)cc2)oc1N1CCCC1	i	-0.99
63	Cc1nn(CCCC(=O)NCCc2c[nH]c3ccccc23)c(=O)c2c(-n3cccc3)n(-c3ccccc3)nc12	i	1.9
64	O=C(Nc1ccc2c(c1)nc1n2CCN(Cc2ccccc2)C1)c1ccccc1Cl	i	0.34
65	Cc1cc(NC(=O)c2sc3ncnc(N4CCN(C)CC4)c3c2C)no1	i	0.07
66	O=C(NC1CC1)C1CCCN(c2ccc3cc(S(=O)(=O)N4CCCCC4)ccc3n2)C1 (stereo not given)	i	-0.76
67	CCC(=O)Nc1cccc(-c2noc(C3CCCN(C(=O)c4cc5ccccc5[nH]4)C3)n2)c1 (stereo not given)	i	0.54
68	Fc1ccc(-c2noc(Cc3nc(-c4ccc(Br)cc4)cs3)n2)cc1	i	2.1
69	Cc1nc2cc(NC(=O)c3ccc(S(=O)(=O)N4CCCCC4)cc3)ccc2s1	i	0.79
70	CC(C)CC(=O)N1CCC(C(=O)NCCc2csc(-c3cccs3)n2)CC1	i	-2.1
71	COc1ccc(-c2nn3c(NCC4CCCO4)cc(C)nc3c2C)cc1OC (stereo not given)	i	-0.75
72	O=C(NCCc1nc2cccnc2n1Cc1ccccc1)Nc1ccc(Cl)cc1	i	-0.2
73	CCCCN(CC)c1cc(C(=O)O)c2cc(NC(=O)c3cccc(Cl)c3)ccc2n1	i	0.81
74	Cc1ccc(S(=O)(=O)NCCc2sc3nc(-c4ccccc4)nn3c2C)cc1C	i	-0.87
75	CC(C)c1noc(-c2ccccc2OCC(=O)Nc2nnc(C(C)C)s2)n1	i	0.15

Looked up one by one from the list above:
nr	smiles	Choline anaer gr	Choline anaer gr early
64	O=C(Nc1ccc2c(c1)nc1n2CCN(Cc2ccccc2)C1)c1ccccc1Cl	i	0.34
18	CCOC(=O)c1scc(-c2ccc(C)cc2)c1S(=O)(=O)N1CCN(c2ccccn2)CC1	i	-1.4
21	O=C(Nc1cnc(N2CCN(c3ccc(F)cc3)CC2)c(C(=O)O)c1)c1ccc(F)cc1	i	0.69

Further compounds
nr	smiles	Choline anaer gr	Choline anaer gr early
76	CC(C)c1nc(CNC(=O)c2ccc(F)cc2)no1	i	0.54
77	Cn1c(=O)c(=O)[nH]c2cc(-c3noc(C4(c5ccccc5)CC4)n3)ccc21	i	-1.4
78	O=C(c1ccc(C(F)(F)F)s1)N1CCCN(c2nnc3ccc(Cl)cn23)CC1	i	0.7
79	CC(=O)Nc1ccccc1-c1nnc(SC(C)C(=O)Nc2ccccc2Cl)[nH]c1=O (stereo not given)	i	-0.6
80	Cc1nc2ccccc2c(=O)n1Cc1noc(CN2C(=O)COc3ccc(Cl)cc32)n1	i	-0.32
81	O=C(c1ccc2c(c1)N(CC(=O)N1CCCc3ccccc31)C(=O)C1CCCCN21)N1CCCC1 (stereo not given)	i	0.49
82	CCn1c(=O)sc2cc(NC(=O)C3CC(=O)N(c4ccccc4)C3)ccc21 (stereo not given)	i	-0.02
83	CCCCc1nn2c(=O)cc(CN(CCC)Cc3ccc(C)cc3)nc2s1	i	-0.03
84	CCn1c(CCc2ccc(NC(=O)c3ccc4c(c3)OCO4)cc2)nc2ccccc21	i	0.99
85	CCOC(=O)c1c(NC(=O)c2csnn2)sc2c1CCCC2	i	0.4
86	Cn1c(N2CCC(C(=O)Nc3ccc(F)cc3)CC2)cc(=O)n(C)c1=O	i	-0.45
87	C=Cc1ccc(Cn2nc3n(CCC(C)C)c(=O)c4ccccc4n3c2=O)cc1	i	1.8
88	O=C1CC(c2ccc(OC3CCCC3)cc2)c2cnn(-c3nc4ccccc4s3)c2N1 (stereo not given)	i	0.88
89	Cc1cccc(NC(=O)Nc2cc(F)c3nc(N4CCCC4)ccc3c2)c1	i	0.31
90	CN(C)c1ncncc1N1CCC(C(=O)NC2CCCC2)CC1	i	0.42
91	CCOC(=O)c1cccc(NC(=O)CCS(=O)(=O)c2ccc3c(c2)CC(=O)N3C)c1	i	-0.06
92	CCN(CC)CCCNC(=O)C1CCN(C(=O)c2oc3cc4sc(N(C)C)nc4cc3c2C)CC1	i	-0.54
93	O=C1CN(Cc2c(F)cccc2Cl)S(=O)(=O)c2ccccc2N1Cc1ccccc1	i	-0.44
94	Cc1nn(-c2cc(N3CCOCC3)ncn2)c(C)c1CCC(=O)N1CCN(c2ccccn2)CC1	i	-0.5
95	CCn1nc(C)c(CCN(C)C(=O)Nc2cc(Cl)c(OC)cc2OC)c1C	i	-0.25
96	COc1ccc2[nH]cc(CCNC(=O)c3ccccc3NC(=O)C3=C(C)OCCS3)c2c1	i	0.64
97	CCC(C)NC(=O)c1cc(C)nc2c1c(=O)n(C)c(=O)n2C (stereo not given)	i	-1.4
98	Cc1cccc(C(=O)NCC(c2cccnc2)S(=O)(=O)c2ccc(F)c(C)c2)c1 (stereo not given)	i	0.25
99	O=C(NC1CCCCC1)c1ccc(-n2nc(OCc3ccc(Cl)cc3)ccc2=O)cc1	i	0.1
100	Cc1ccc2c(c1)OC=CC(C(=O)Nc1ccc(Br)cc1)=C2	i	0.99

Single records, as listed above. Order of values: Choline anaer gr | Choline anaer gr early
`CCN(CC)CCCNC(=O)C1CCN(C(=O)c2oc3cc4sc(N(C)C)nc4cc3c2C)CC1` as listed: i | -0.54
`CC(=O)Nc1ccccc1-c1nnc(SC(C)C(=O)Nc2ccccc2Cl)[nH]c1=O` (stereo not given) as listed: i | -0.6
`CN(C)c1ncncc1N1CCC(C(=O)NC2CCCC2)CC1` as listed: i | 0.42
`Cc1ccc2c(c1)OC=CC(C(=O)Nc1ccc(Br)cc1)=C2` as listed: i | 0.99
`Cc1nn(-c2cc(N3CCOCC3)ncn2)c(C)c1CCC(=O)N1CCN(c2ccccn2)CC1` as listed: i | -0.5

(further entries)
nr	smiles	Choline anaer gr	Choline anaer gr early
101	CCc1ccc(S(=O)(=O)NCc2nc3cccnc3n2Cc2ccccc2)cc1	i	0.38
102	CC1Oc2ccc(NC(=O)c3ccc(F)cc3)cc2NC1=O (stereo not given)	i	1.2
103	CC(C)c1ccc(CNC(=O)CCn2cnc3c([nH]c4ccc(F)cc43)c2=O)cc1	i	-0.1
104	COc1ccc(C2CC(=O)Nc3c2c(C)nn3-c2nc3ccccc3[nH]2)cc1Br (stereo not given)	i	-0.19
105	CCOc1ccc(-c2c(C)nn3c(C)c(C(=O)Nc4ccccc4Cl)cnc23)cc1OCC	i	-0.03
106	CC(C)(C)C(=O)Nc1ccc(N2CCC(C(N)=O)(N3CCCCC3)CC2)cc1C(=O)O	i	-0.1
107	CCOC(=O)CS(=O)(=O)c1cc2c(cc1NC(=O)C1CC1)n(C)c(=O)c(=O)n2C	i	-1.2
108	O=C(C1CCCO1)N1CCN(c2ncnc3c2nnn3-c2ccccc2)CC1 (stereo not given)	i	-0.22
109	Cc1ccc(-c2nc(CN3CCC(C(=O)Nc4cccc(C)c4)CC3)no2)cc1	i	0.19
